Menin MLL FP FL = displaces fluorescein MLL peptide from human menin; Fluorescence polarization, fluorescein-MLL peptide displacement from menin; FP activity change, % at 61.4 µM; 290,000 tested, under 10 active; inconclusive = falling polarisation curve, or a change in total fluorescence; inactive = total fluorescence flat and polarisation flat or rising; no compound was filed as active; the % refers to the polarisation; negative = inhibition;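 also: % of control where 0% means no effect; inhibitors lower the polarisation; unlabelled MLL peptide was the positive control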
gsp antag = gsp mutant antagonism | Potency, µM (doses to about 76.9 µM), for inactives: top-dose activity change, negative = inhibition, most hits filed as inhibitors | gsp-mutant cells, cAMP HTRF, 30 min; control for the full effect not named in the record | 0.4% of 340,000 active; active = falling curve of any shape with a large fitted effect; inconclusive = falling curve, mostly with a smaller effect; inactive = flat or rising curve; cell line not stated here;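 also: intracellular cAMP measured with PDE inhibitor Ro 20-1724 present during compound exposure; potency is read from the fitted curve at half-maximal effect; % is scaled to controls: 0 for no effect and ±100 for the full control effect; nearly all actives have a fitted effect of over 65% in size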
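Cells in G418 medium, seeded 16-24 h, 37C; buffer exchange to DPBS + 1 mM CaCl2, 0.5 mM MgCl2, 0.05% BSA; cpds in DMSO + […] (300 uM stock), 30 min 37C; HTRF cAMP detection.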
gsp ag = gsp mutant agonism; gsp mutant cells, cAMP HTRF, 30 min; control for the full effect not named in the record; 0.13% of 340,000 active; AID 624287; Potency, µM (doses to about 76.9 µM), inactives show top-dose activation (cAMP increase), most hits filed as activators; active = well fitted activation curve with a large enough effect; inconclusive = small, poorly fitted or top-dose-only effect, or another doubt; inactive = no such curve, though single readings can be large or run the other way; cell line not stated here;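 also: phosphodiesterase inhibitor Ro 20-1724 added with compounds to block cAMP breakdown; potency is read from the fitted curve at half-maximal effect; nearly all actives have a fitted effect of over 60% in size; about a fifth of the inactives were tested at one dose only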
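Cells stably selected in G418 were plated at 2000/well, grown 16-24 hr, then given compounds in DMSO with the PDE inhibitor […] (300 uM solution added) for 30 min at 37C; cAMP was read by HTRF.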
ClpP mod = qHTS Assay for Activators of ClpP; ATP-dependent Clp protease proteolytic subunit (Bacillus subtilis (strain 168)), P80244; purified B. subtilis ClpP, FRET peptide cleavage, 20 min; Potency, µM (highest dose often 57.5 µM), for the others: at the top dose activity change, negative = active; 1.9% of 340,000 active; AID 651965, 2013; active = well fitted falling curve with a large enough effect; inconclusive = small, poorly fitted or top-dose-only effect; inactive = no such curve, though single readings can be large or run the other way; also: potency is read from the fitted curve at half-maximal effect; the source files actives as falling curves though it sought activators and does not explain the sign; nearly all actives have a fitted effect of over 65% in size; many hits overshoot -100%
Target sequence (P80244 whole entry, looked up): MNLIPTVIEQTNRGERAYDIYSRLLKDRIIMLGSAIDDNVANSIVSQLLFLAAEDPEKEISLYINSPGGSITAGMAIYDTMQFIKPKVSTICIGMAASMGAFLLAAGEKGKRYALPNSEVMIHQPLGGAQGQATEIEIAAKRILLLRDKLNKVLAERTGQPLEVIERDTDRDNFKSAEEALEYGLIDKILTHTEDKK
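FRET quenching reversal measured ClpP activation: 10 microg/mL B. subtilis ClpP at pH 8 with the FRET-FV decapeptide, read at 430 nm after 320 nm excitation. The 20-min minus 0-min signal was scaled between DMSO/no-enzyme wells and ADEP (5.8 microM final).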
TRPML1 inh = inhibitors of human TRPML1 channel. Q9GZU1. TRPML1-inducible cells, Ca2+ dye fluorescence, FDSS; stronger effect = lower value; inhibition of EC80 agonist-evoked calcium signal. activity change, negative = inhibition, % (test concentration not listed). 0.02% of 390,000 active. AID 624415; in the data active means activity change below about -50%; inconclusive means about -30% to -50%; inactive means above about -30%;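 also: stimulus is agonist 54-4 at its EC80 concentration; % is scaled to controls: 0 for no effect and ±100 for the full control effect; compound concentration not given in the record; the text of the record puts the active cut at -80%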
Target sequence (Q9GZU1 whole entry, looked up): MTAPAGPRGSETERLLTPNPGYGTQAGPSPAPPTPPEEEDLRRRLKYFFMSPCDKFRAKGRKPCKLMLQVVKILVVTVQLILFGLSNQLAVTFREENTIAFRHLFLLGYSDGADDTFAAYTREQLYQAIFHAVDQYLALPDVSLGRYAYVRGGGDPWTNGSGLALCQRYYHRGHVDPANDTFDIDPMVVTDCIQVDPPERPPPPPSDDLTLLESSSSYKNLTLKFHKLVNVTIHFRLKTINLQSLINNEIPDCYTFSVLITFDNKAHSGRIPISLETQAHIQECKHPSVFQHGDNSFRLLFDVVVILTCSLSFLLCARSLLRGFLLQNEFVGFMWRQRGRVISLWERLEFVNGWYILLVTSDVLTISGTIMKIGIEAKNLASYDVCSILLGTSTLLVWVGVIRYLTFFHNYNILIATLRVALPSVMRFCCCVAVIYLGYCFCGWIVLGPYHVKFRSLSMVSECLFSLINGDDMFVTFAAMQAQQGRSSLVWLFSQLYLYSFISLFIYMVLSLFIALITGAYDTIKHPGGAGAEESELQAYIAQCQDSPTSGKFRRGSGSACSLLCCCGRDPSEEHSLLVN
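Calcium fluorescence in TRPML1-DL cells induced overnight with Tet: a 110 s read after compound pin addition, then a 110 s antagonist read after challenge with 54-4 at 4 uM final (EC80).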
TRPML1 agonist = agonists of human TRPML1 channel; TRPML1-expressing cells, Ca2+ dye fluorescence, FDSS; host cell line not named in the record; reference of the full effect not given here; AID 624414; 0.12% of 410,000 active; activation, % (test concentration not listed); Q9GZU1; in the data active = activation above about 50%; inconclusive = about 30% to 50%; inactive = below about 30%; also: 0% is about no effect; the text of the record puts the active cut at 80%
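Cells: TRPML1-DL, 1X Tet inducer, ~16 h at 37 degrees C/5% CO2. Dye: ABD Ca8 no-wash + quencher, 45-90 min RT. Read: 10 s baseline, compound add, 110 s agonist phase; 54-4 EC80 (4uM final), 110 s antagonist phase.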
Starred values were filed as active, the others as inactive; ? = inconclusive; . = not tested or not shown; [ ] = another dose, or the depositor's remark.

molecule	TRPML1 agonist	TRPML1 inh	gsp antag	gsp ag	ClpP mod	Menin MLL FP FL
Cc1ccc(-n2c(COc3cccc(C)c3)n[nH]c2=S)cc1	1.7	-29.4	?	-38.3%[inhibitor]	0.8%	1.5
Cc1ccc(Cn2cc(SCC(N)=O)c3ccccc32)cc1	1.6	17.9	0.3%	36.1%	0.6%	4.2
COc1ccc(C)cc1NS(=O)(=O)c1cc(C)ccc1C	0.3	-13.9	4.4%	?	1.5%	1.3
Cc1ccc(N2CC(C(=O)Nc3ccc(S(=O)(=O)Nc4nccc(C)n4)cc3)CC2=O)cc1 (configuration not stated)	0.2	-4.9	6.9%	-18.2%	.	-6.8
CCCCNCc1ccc(OCc2ccc(Cl)nc2)c(OC)c1	-0.3	2.5	4.3%	-5.7%[15.4 µM]	.	-1.7
CC1CCc2sc3c(c2C1)c1ncnn1c(=O)n3CC(=O)c1ccc(Br)cc1 (configuration not stated)	0.2	1.6	-5.1%[15.4 µM]	27.3%	-2.2%	.
CN(C)[C@@H](CO)c1nnc([C@H](CCC(=O)O)NC(=O)C2CCNCC2)o1	-0.2	-0.5	6.8%	.	-1.8%	-4.4
CCOC(=O)C1CCN(C(=O)CNC(=O)c2nn(-c3ccc(OC)cc3)c(=O)c3ccccc23)CC1	-0.1	-2.3	-8.2%	-8.2%[15.4 µM]	.	-11.4
Cc1ccc(NC(=O)CCNS(=O)(=O)c2ccc(OC(F)(F)F)cc2)c(O)c1	-0.5	-10.4	6.8%	19.5%[15.4 µM]	0.7%	.
CN(c1ccccc1)S(=O)(=O)c1ccc(C(=O)OCC(=O)N2CCOCC2)cc1	-0.3	-1.3	12.4%	-16.3%	-0.8%	-0.3
O=C(NC1CC(=O)N(c2cccc(F)c2)C1)C1CCCC1 (configuration not stated)	-0.4	9.6	.	.	-1.4%	.
Cc1cccc(Nc2nnc(SCC(=O)Nc3cccnc3Cl)s2)c1	1.9	19.9	-29.5%	53.4%	1.1%	6.9
COc1cc(N)c(Cl)cc1C(=O)OCC(=O)NC(=O)NCc1ccco1	1.3	32.2	6.5%	-0.8%[15.4 µM]	-1.7%	.
COc1ccc2c(c1)SCCC2=O	0.7	-7.7	8.5%	5.9%	-7.6%	1.0
Cc1ccc(C(=O)CN2C(=O)NC3(CCCCC3C)C2=O)s1 (configuration not stated)	-0.5	-12.5	1.0%	1.9%	-3.3%	.
COc1ccc(CNC(=O)c2cc(-c3ccco3)on2)cc1	0.6	-7.8	3.7%	-46.1%[inhibitor]	-1.1%	10.1
CN(C(=O)CN1CCN(c2cc(-c3cccc4oc5ccccc5c34)ncn2)CC1)c1ccccc1	-0.1	1.7	.	.	-3.0%	.
COc1ccc(C(CNC(=O)COc2ccc(Br)cc2F)N2CCCC2)cc1 (configuration not stated)	1.6	17.3	21.6%	-6.9%[15.4 µM]	0.2%	3.7
COc1cccc(NS(=O)(=O)c2ccc3c(c2)NC(=O)C(C)C(=O)N3)c1 (configuration not stated)	-0.7	22.9	13.9%	-41.4%[inhibitor]	0.1%	-1.7
Cc1ccc(NC(=O)C(C)OC(=O)CCC2CCCCC2)cc1 (configuration not stated)	2.0	-22.7	-13.3%	-45.4%[15.4 µM]	.	.
Nc1ccccc1SCC(=O)Nc1ccc2c(c1)OCO2	0.0	-3.9	3.6%	2.2%	-2.3%	.
CN(C)c1ccc(C(CNC(=O)c2ccc(C(C)(C)C)cc2)N2CCCC2)cc1 (configuration not stated)	-0.8	19.4	.	.	0.2%	.
CC1CN(Cc2c(O)ccc3c2oc(=O)c2ccccc23)CC(C)O1 (configuration not stated)	-0.3	5.5	0.4%	28.2µM*	-18.2%	-1.0
CC(C)(C)Oc1ncc(Br)c(OC(C)(C)C)n1	3.9	9.5	2.9%	-4.5%	-0.9%	-1.9
C/C(=N\NC(=O)CSc1nnc(C)s1)c1ccc(Cl)cc1	0.5	-29.6	16.8%	-25.6%	-19.8%	-0.9
O=C1C=C(Nc2ccc(Cl)cc2)CC(c2ccc(Cl)cc2)C1 (configuration not stated)	1.0	-3.5	-6.4%	-28.2%	-12.3%	2.0
CC1CCCN(C(=O)c2ccc3c(c2NCCO)C(=O)c2ccccc2C3=O)C1 (configuration not stated)	-0.7	0.3	-14.7%	4.8%	-0.9%	3.2
CCN1C(=O)C(O)(C2COC(C)(C)CC2=O)c2ccccc21 (configuration not stated)	-0.1	14.1	19.0%	-14.1%	0.5%	-0.4
O=C(NC1CCCN(CCc2ccccc2)C1)c1c(F)cccc1F (configuration not stated)	-0.7	8.9	4.8%	-33.2%[inhibitor]	0.1%	-2.0
CCC(=O)c1ccc(SC(=O)N(C)C)cc1O	1.2	-5.5	5.2%	-5.0%	-1.1%	-3.1
CCOC(=O)c1c(C)nsc1NCc1ccccc1	1.1	13.5	-20.7%	-30.3%[inhibitor]	0.9%	.
Clc1ccccc1Cn1nnc2c(NCC3CC3)ncnc21	0.6	0.7	5.5%	11.1%	-1.6%	3.5
Cc1cc(C)nc(CCNC(=O)C2CCC(=O)N(Cc3ccccc3F)C2)n1 (configuration not stated)	0.3	-5.9	-5.2%	-27.9%	0.1%	.
COc1ccc(CN2CCNC(=O)C2CC(=O)NCc2cccc(C)n2)c(OC)c1 (configuration not stated)	0.6	-6.5	5.4%	-8.3%[15.4 µM]	.	-6.8
CCCCn1c(N)c(N(CCOC)C(=O)COc2c(C)cccc2C)c(=O)[nH]c1=O	0.7	-7.6	9.5%	3.8%[15.4 µM]	.	.
CCCCn1c(N)c(N(CC(C)C)C(=O)CC2OC(=O)c3ccccc32)c(=O)[nH]c1=O (configuration not stated)	0.8	7.8	0.0%	-1.3%[15.4 µM]	.	.
O=C(N[C@@H](Cc1ccc(O)cc1)C(=O)O)c1ccc(C(F)(F)F)cc1	-0.1	-11.7	8.5%	4.1%	1.5%	1.4
O=C(CN1c2cccc3cccc(c23)S1(=O)=O)Nc1c(F)c(F)c(F)c(F)c1F	2.0	10.6	6.7%	11.3%	.	.
CCCCSc1nnc(-c2ccccc2N)c(=O)[nH]1	1.7	28.1	-11.3%	-52.7%[inhibitor]	0.8%	9.9
CCOC(=O)c1cc(CC)sc1NC(=O)CC1SC(N)=NC1=O (configuration not stated)	0.9	-11.0	-27.4%	5.8%	-3.8%	0.1
O=C(NNC(=O)C1CC1)c1cc(Cl)nc2ccccc12	0.6	15.6	13.3%	-8.4%	-1.9%	.
COC(=O)CCC(=O)N1CCCC(CNS(=O)(=O)c2ccc(OC)cc2)C1 (configuration not stated)	-0.5	1.6	5.8%	-1.3%	1.0%	0.8
O=C(CC1C(=O)NCCN1C(=O)c1ccc([N+](=O)[O-])cc1)Nc1cccc(Cl)c1 (configuration not stated)	-0.3	2.3	12.2%	22.0%	1.9%	.
CCN(CC)CC(O)Cn1c(C)c(-c2ccccc2)c2cc([N+](=O)[O-])ccc21 (configuration not stated)	-0.1	8.6	15.4%	18.0%	.	0.0
O=C(COc1ncnc2ccccc12)Nc1cccc(S(=O)(=O)N2CCOCC2)c1	0.3	1.0	9.9%	12.4%	-0.3%	-0.3
CCS(=O)(=O)N1CCC2(CC1)OC(=O)C(C)=C2C(=O)NCc1ccc(OC)c(OC)c1	-0.6	4.3	.	.	0.3%	.
CCCCCC(=O)Nc1ccc(-c2cn3cccnc3n2)cc1	0.6	1.3	-15.9%	24.5%[15.4 µM]	-0.2%	3.9
CNC(=S)N1CCN(C(c2ccccc2)c2ccccc2)CC1	1.3	-9.8	-8.7%	42.5%	.	2.2
O=C(c1c[nH]c2ccccc12)N1CCN(Cc2ccccc2)CC1	-0.3	-15.2	3.1%	-15.2%	-2.2%	0.8
Cc1ccc(NS(=O)(=O)c2ccc(CCC(=O)NCc3ccccn3)cc2)cc1	-0.6	-4.6	-11.5%	-43.1%[inhibitor]	.	0.3
CN(C(=O)/C=C/c1ccc([N+](=O)[O-])s1)c1ccccc1	2.6	-0.3	-6.4%	-9.5%	-2.7%	14.1
O=Cc1cn(CC(=O)N2CCc3ccccc32)c2ccccc12	-0.9	-9.7	4.1%	3.5%[15.4 µM]	0.6%	-1.7
CCCc1nc(SCC(=O)c2ccccc2)c2c(=O)n(C)c(=O)n(C)c2n1	-0.6	14.5	35.5µM*	-51.7%[inhibitor]	2.9%	1.8
NS(=O)(=O)c1ccc(NC(=O)Cn2nc(C(=O)O)c3ccccc3c2=O)cc1	0.4	20.8	10.3%	?	.	-0.3
Cc1nn2c(=O)cc(COC(=O)Cc3ccccc3)nc2s1	-0.6	-12.9	.	.	0.2%	.
Cc1cc(Nc2cccc(F)c2)n2c(n1)nc1ccccc12	-0.2	2.5	0.2%	0.6%	-11.5%	0.1

The list continues.
molecule	TRPML1 agonist	TRPML1 inh	gsp antag	gsp ag	ClpP mod	Menin MLL FP FL
OCCNc1nc(SCc2ccccc2)nc2sc3c(c12)CCC3	-0.8	8.7	-10.3%	-0.3%	0.6%	6.4
O=C(CNC(=S)N(Cc1ccccc1)Cc1cccnc1)NC1CCCCC1	0.8	24.4	4.7%	4.1%[15.4 µM]	-7.1%	-1.4
O=C(Nc1ccc(Br)cc1)c1ccc(N2C(=O)C3CCCCC3C2=O)cc1 (configuration not stated)	0.6	-2.3	7.1%	-21.7%	-5.3%	-2.7
Cc1cccc(NS(=O)(=O)c2csc(C(N)=O)c2)c1	-0.2	-10.7	-15.7%	17.7%	-0.4%	-4.2
CCOc1ccc(NC(=S)N(CCc2c(C)[nH]c3ccc(C)cc23)Cc2ccncc2)cc1	0.8	-3.1	-21.9%	-17.1%	-5.7%	2.7
O=C(O)c1ccc(-c2nnc(-c3ccccc3)o2)cc1	0.9	29.3	-18.3%	26.4%	-7.9%	-1.3
COc1ccc2c(COC(=O)CC3Sc4ccccc4NC3=O)cc(=O)oc2c1 (configuration not stated)	1.2	-6.3	-8.4%	-27.4%	?	?
CCCCCOc1ccc(C(=O)CCC(=O)N2CCCC2)cc1	-0.4	-1.3	-11.4%	3.5%	.	0.4
Cc1ccc(OCCNC(=O)c2cc(C(=O)NCCOc3ccc(C)cc3)cc([N+](=O)[O-])c2)cc1	0.5	-16.3	-10.9%	2.8%	-4.3%	-0.8
COc1ccc(CCNC(=O)COC(=O)COc2ccc(Cl)cc2)cc1OC	0.3	6.0	10.7%	-35.9%[inhibitor]	1.4%	2.7
O=c1cc(-c2ccccc2)c2ccc(O)c(CN3CCCCC3)c2o1	-0.3	-22.8	10.1%	-19.9%	-20.8%	0.4
